Compound activity deposited in PubChem BioAssay by National Center for Advancing Translational Sciences (NCATS).
HPGD block: HPGD (human) dehydrogenase inhibition | Potency, µM, inactives show at the highest dose activity change, negative = inhibition, hits mostly inhibitors | purified HPGD, NADH fluorescence kinetic, PGE2 substrate | 150,000 tested, 4.3% active | P15428; active = well fitted inhibition curve with a large enough effect (not every such curve was filed as active); inconclusive = small, poorly fitted or top-dose-only effect, or another doubt; inactive = no such curve, though single readings can be large or run the other way;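 note: top concentration of the series not given in the record; plate controls included wells without enzyme; inactives centre near -10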
Target sequence (P15428 whole entry, looked up): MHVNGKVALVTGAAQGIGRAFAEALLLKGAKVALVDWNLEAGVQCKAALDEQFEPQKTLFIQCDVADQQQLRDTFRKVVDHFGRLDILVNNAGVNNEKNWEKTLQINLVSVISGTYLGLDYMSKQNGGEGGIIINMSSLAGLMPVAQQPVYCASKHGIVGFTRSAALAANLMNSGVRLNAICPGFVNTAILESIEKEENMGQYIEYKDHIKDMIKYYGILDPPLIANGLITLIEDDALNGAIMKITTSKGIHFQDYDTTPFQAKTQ
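20 nM HPGD preincubated 15 min at room temperature with compound in 50 mM Tris-HCl pH 8, 0.01% Tween 20. Started with 1 mM NAD+ and 30 uM prostaglandin E2; NADH fluorescence (360/450 nm) read 5 times over 30-s intervals, last minus first.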
Active calls of the source: *; & = joins results of further samples. % is set by controls: 0 for no effect and ±100 for the full control effect; potency is the fitted concentration of half-maximal effect. Some of the compounds tested; rates above refer to the full screens.

The opening seven compounds (preview)
`CN1CCc2nc(NC(=O)c3cccc(S(=O)(=O)N4CCc5ccccc54)c3)sc2C1` gave HPGD block -13%.
O=S(=O)(c1ccc(S(=O)(=O)N(Cc2ccco2)Cc2ccccc2Cl)cc1)N1CCCC1 was read as HPGD block -18%.
`COC(=O)[C@H]1C[C@@H]1[C@H](NC(=O)c1cc(C)on1)c1ccccc1` gave HPGD block -11%&-10%.
`Cn1cnnc1SCc1ccc(F)c2ccccc12` gave HPGD block -7%.
CC1CC1C(=O)OCC(=O)NCc1ccc(Cl)cc1Cl (stereo not drawn) was read as HPGD block -18%.
CCOC(=O)c1nnn(-c2nonc2N)c1COc1ccc(F)cc1 was read as HPGD block -1%.
`COc1ccccc1N1CC(O)=C(c2nc3ccccc3c(=O)[nH]2)C1=N` gave HPGD block inconclusive.

Main list, from the first entry:
`CN1CCc2nc(NC(=O)c3cccc(S(=O)(=O)N4CCc5ccccc54)c3)sc2C1` gave HPGD block -13%.
O=S(=O)(c1ccc(S(=O)(=O)N(Cc2ccco2)Cc2ccccc2Cl)cc1)N1CCCC1 was read as HPGD block -18%.
`COC(=O)[C@H]1C[C@@H]1[C@H](NC(=O)c1cc(C)on1)c1ccccc1` gave HPGD block -11%&-10%.
`Cn1cnnc1SCc1ccc(F)c2ccccc12` gave HPGD block -7%.
CC1CC1C(=O)OCC(=O)NCc1ccc(Cl)cc1Cl (stereo not drawn) was read as HPGD block -18%.
CCOC(=O)c1nnn(-c2nonc2N)c1COc1ccc(F)cc1 was read as HPGD block -1%.
`COc1ccccc1N1CC(O)=C(c2nc3ccccc3c(=O)[nH]2)C1=N` gave HPGD block inconclusive.
`COc1ccc(CC(=O)NCc2nnc(SCC(=O)Nc3nccs3)n2-c2ccccc2)cc1` gave HPGD block -6%.
For COc1ccc(Br)cc1/C=N/n1c(C)nnc1C the results were HPGD block -18%.
`CC1=NN(C(=O)COc2ccc(C)c(C)c2)C(O)(c2ccc(Cl)cc2)C1` (stereo not drawn) gave HPGD block -13%.
`COC(=O)[C@@H](NC(=O)Nc1ccc(OC(F)(F)F)cc1)C(C)C` gave HPGD block 28µM*.
Cc1nc(NC2CCCCC2)c2nc(-c3ccccc3)n(CCCN(C)C)c2n1 was read as HPGD block inconclusive.
`O=C1CCCC2=C1C(c1ccco1)Nc1ccc(C(=O)c3ccccc3)cc1N2` (stereo not drawn) gave HPGD block -28%.
Cc1noc(C)c1C(=O)N1CCC[C@@]2(CCN(C(=O)Nc3ccccc3)C2)C1 was read as HPGD block -2%.
Cc1ccc2c(c1)C(CCN)C(=O)N2Cc1ccccc1 (stereo not drawn) was read as HPGD block -6%.
For Cc1cc(C)cc(Oc2ccccc2C=O)c1 the results were HPGD block -4%.
For CCCOc1ccccc1NC(=O)/C=C/C(N)=O the results were HPGD block -23%.
`CCOC(=O)c1[nH]c2ccc(OC)cc2c1NC(=O)C(C)N1CCSCC1` (stereo not drawn) gave HPGD block inconclusive.
`CCOC(=O)Cn1c(=NC(=O)C2COc3ccccc3O2)sc2cc(S(N)(=O)=O)ccc21` (stereo not drawn) gave HPGD block -18%.
`Cc1nc2ccc(NC(=O)c3cccs3)cc2c(=O)n1Cc1ccc(Cl)cc1` gave HPGD block -4%.
Cn1c(SCC(=O)Nc2cccc(Br)c2)nnc1-c1cc2ccccc2o1 was read as HPGD block inconclusive.
CC(=O)N1CCC(N(CCCOC(C)C)C(=O)Nc2ccc(C)c(C)c2)CC1 was read as HPGD block 2%.
Screening CN(C)CCCN1C(=O)c2oc3ccc(F)cc3c(=O)c2C1c1cccnc1 (stereo not drawn) returned HPGD block inconclusive.
Screening COc1ccc(/C=N/n2c(SC)nnc(C(C)(C)C)c2=O)cc1OC returned HPGD block -18%.
`CC(C)NC(=O)CSc1nncn1-c1ccccc1` gave HPGD block -6%.
O=C(CN(Cc1cccs1)C(=O)CCC(=O)Nc1nccs1)NCc1ccccc1 was read as HPGD block 2%.
Screening CCOC(=O)c1cc2c(=O)n3ccccc3nc2n(C(C)C)c1=NC(=O)c1c(-c2c(F)cccc2Cl)noc1C returned HPGD block inconclusive.
Screening CC1=CC(C)(C)Nc2ccccc21 returned HPGD block -2%&-12%.
`CCc1nnc(NC(=O)CCC(=O)N2CCN(Cc3cc(Cl)ccc3OC)CC2)s1` gave HPGD block -14%.
Cc1cccc(NC(=O)Cn2c(=O)n(C)c3ccccc32)c1 was read as HPGD block 7%.
Screening Cc1occc1C(=O)N1CCN(C(=O)C2CCCO2)CC1 (stereo not drawn) returned HPGD block -8%.
Screening Cc1cccc(NC(=S)Nc2ccccn2)c1C returned HPGD block -3%.
c1ccc2c(c1)CSc1sccc1C2=C1CCNCC1 was read as HPGD block -1%.
Screening O=S(=O)(NCCSc1nnc(-c2ccco2)n1-c1ccccc1)c1ccccc1 returned HPGD block -9%.
CCOC(=O)c1cc(CC)sc1NC(=O)c1cc(OC)c(OC)c(OC)c1 was read as HPGD block inconclusive.
Screening COc1cccc(Cn2cccc(NC(=O)Nc3ccc(C#N)cc3)c2=O)c1 returned HPGD block inconclusive.
`Cc1c(C(=O)OC(C)C)sc2nc[nH]c(=O)c12` gave HPGD block inconclusive.
`Cc1ccc(C(=O)O/N=C(/c2nonc2N)N(C)C)cc1` gave HPGD block 5%.
For O=C(CSc1cccc2cccc(Cl)c12)OCC(=O)N1CCN(C(=O)c2ccco2)CC1 the results were HPGD block inconclusive.
Screening CCOc1cc(C2C(C#N)=C(N)OC3CCCC(=O)C32)ccc1OCCN1CCOCC1 (stereo not drawn) returned HPGD block -4%.
Screening Cc1nc(N2CCN(S(=O)(=O)c3ccccc3)CC2)c2cc(-c3ccccc3)sc2n1 returned HPGD block inconclusive.
For O=c1[nH]c2ccc(Cl)cc2c(-c2ccccc2)c1N1CCN(c2ccccn2)CC1 the results were HPGD block inconclusive.
`CCOC(=O)c1ccc(NC(=O)Cc2coc3cc4c(cc23)CCC4)cc1` gave HPGD block -18%.
`Cc1ccccc1OCCNc1cc(N2CCCCC2)ccc1[N+](=O)[O-]` gave HPGD block -9%.
Screening NC1=NC(=O)CC(C(=O)NCc2ccccc2)S1 (stereo not drawn) returned HPGD block -2%.
Screening COc1ccc(C)cc1S(=O)(=O)NCCc1ccccc1 returned HPGD block -10%.
Cc1cc(OC(=O)c2c(Cl)cc(Cl)cc2Cl)nc(C)n1 was read as HPGD block -13%.
`CCN1CCCC1CNC(=O)C1c2cc(OC)c(OC)cc2C(=O)N(C)C1c1cccnc1` (stereo not drawn) gave HPGD block -7%.
For O=C(Nc1ccc2nc(-c3ccco3)c(-c3ccco3)nc2c1)N1CCCCCC1 the results were HPGD block inconclusive.
For CC(=O)c1c(C(C)=O)c(C)n(-c2ccc(C)c(NC(=O)c3ccccc3Cl)c2)c1C the results were HPGD block 0%.
For Cc1c(C(=O)OCC2CCCO2)[nH]c2c1C(=O)CC(c1ccco1)C2 (stereo not drawn) the results were HPGD block inconclusive.
Screening O=C(CCSc1nnc(-c2ccncc2)o1)Nc1cccc2ccccc12 returned HPGD block -8%.
O=C(CCn1c(=O)[nH]c2ccsc2c1=O)NCCc1ccc(Cl)cc1 was read as HPGD block -1%.
`CN(C)c1ccc(C(CNS(=O)(=O)c2ccc(F)c(F)c2)c2c[nH]c3ccccc23)cc1` (stereo not drawn) gave HPGD block -4%.
`COc1ccc2c(c1)c(C(O)CN1CCC3(CC1)OCCO3)c(C)n2C` (stereo not drawn) gave HPGD block -17%.
COc1ccc(CNC(=O)CCCOc2cc(=O)n(C)c3ccccc23)cc1 was read as HPGD block -13%.
For CCn1c(CNC(=O)Cc2ccc(OC)cc2)nnc1SCC(=O)NC1CCCCC1 the results were HPGD block -7%.
Screening O=C(/C=C/c1cccc([N+](=O)[O-])c1)NCCSCc1ccc(Cl)cc1Cl returned HPGD block -8%.
CCOc1ccccc1N(CC(=O)Nc1cc(OC)ccc1OC)S(C)(=O)=O was read as HPGD block -8%.
For CCCN=Cc1sc2ccc(OCC)cc2c1O the results were HPGD block inconclusive.
For CCCOc1ccc(NCC(=O)Nc2ccc(C)cc2C)cc1 the results were HPGD block -2%.
`O=S(=O)(c1cccc(S(=O)(=O)N2CCOCC2)c1)N1CCCCC1` gave HPGD block 8%.
`Cc1ccc(N/N=C/c2ccc3c(c2)OCCO3)cc1Cl` gave HPGD block inconclusive.
CC(C)C(=O)NNC(=O)c1ccccn1 was read as HPGD block -4%.
For CCOC(=O)c1c(C)[nH]c(C(=O)CSc2nnnn2-c2ccccc2)c1C the results were HPGD block 3%.
O=C(CCS(=O)(=O)c1ccc(Br)cc1)Nc1ccc(Br)cc1F was read as HPGD block -10%.
CCC(c1ccccc1)c1nc(-c2cccnc2)no1 (stereo not drawn) was read as HPGD block -15%.
O=C(Nc1ccc2c(c1)OCO2)c1cccc(Cl)c1 was read as HPGD block inconclusive.
Screening c1coc(CN(Cc2cccs2)Cc2nnnn2C2CCCCC2)c1 returned HPGD block -16%.
Screening Clc1ccc(-n2nnnc2-c2ccccc2)cc1Cl returned HPGD block -8%.
`O=C(Nc1ccccc1)c1ccn[nH]1` gave HPGD block -16%.
`CC(C(=O)N1CCCc2ccccc21)N1CCN(S(=O)(=O)c2ccccc2F)CC1` (stereo not drawn) gave HPGD block 6%.
COc1ccc(C2CC(c3ccccc3)=NN2C(=O)COC(=O)c2cnc(Cl)c(Cl)c2)cc1 (stereo not drawn) was read as HPGD block inconclusive.
CN1C(=O)C(O)(CC(=O)c2ccncc2)c2ccccc21 (stereo not drawn) was read as HPGD block 2%.
For COc1ccc(-c2nc(CN3CCC(C(=O)N4CCc5ccccc54)CC3)c(C)o2)cc1OC the results were HPGD block -10%.
`O=C(CCCCCNC(=O)c1ccccc1)N/N=C/c1ccccc1` gave HPGD block -2%.
For CCCn1c(C)nc2c(N3CCOCC3)nc(C)nc21 the results were HPGD block -4%.
Screening Cc1ccc(NS(=O)(=O)c2cccc(C(=O)n3ncc(C#N)c3N)c2)c(C)c1 returned HPGD block -8%.
For CCn1c(SCC(=O)Nc2nc(C)cs2)nnc1-c1ccoc1C the results were HPGD block -12%.
`NC(=O)C1CCN(C(=O)OCc2ccccc2)CC1` gave HPGD block -7%.
For COC(=O)C1=C(N)OC2=C(C(=O)CC(C)(C)C2)C1c1cccnc1 (stereo not drawn) the results were HPGD block 2%.
N/C(Cc1ccc(Cl)c(Cl)c1)=N\OC(=O)c1cccs1 was read as HPGD block -25%.
`Cc1scc(C(=O)N/N=C/c2ccc(Cl)s2)c1C` gave HPGD block -29%.
Screening CC(=O)Nc1ccc(OCC(O)CN2CCN(c3cccc(Cl)c3)CC2)cc1 (stereo not drawn) returned HPGD block -2%.
Cc1ccc(Oc2cnc3ccccc3n2)cc1 was read as HPGD block inconclusive.
Screening Cc1ccc(NC(=O)CNc2ccc(OC(C)C)cc2)c(C)c1 returned HPGD block -10%.
`Cc1cc(Nc2ccccc2)n(C(=O)c2ccccc2)n1` gave HPGD block -7%.
For c1ccc(Cc2nnc3sc(-c4cccnc4)nn23)cc1 the results were HPGD block 14µM*.
CCc1ccc(C(=O)/C=C/Nc2ccc(S(=O)(=O)Nc3onc(C)c3C)cc2)cc1 was read as HPGD block 20µM*.
COCC(C)NC(C(=O)Nc1ccc(Cl)c([N+](=O)[O-])c1)c1ccccc1 (stereo not drawn) was read as HPGD block 1%.
Screening c1cnc2ccc(C(c3nnnn3C3CCCC3)N3CCN4CCCC4C3)cc2c1 (stereo not drawn) returned HPGD block -4%.
`CCn1c(COc2ccccc2C)nnc1SCC(=O)O` gave HPGD block -15%.
Screening Cn1ncc(Cl)c1C(=O)N/N=C/c1ccccn1 returned HPGD block -11%.
Screening COc1cccc(C2(c3cccc(OC)c3)CC2C(=O)Nc2cccc3ccccc23)c1 (stereo not drawn) returned HPGD block -16%.
CC12CN3CC(C)(CN(C1)C3c1ccc3c(c1)OCO3)C2=O (stereo not drawn) was read as HPGD block -9%.
`Cc1ccc(N(Cc2cc3cc(C)ccc3[nH]c2=O)S(=O)(=O)c2ccccc2)cc1` gave HPGD block -17%.
Brc1ccc(N=C/C=C/C=C/Nc2ccc(Br)cc2)cc1 was read as HPGD block -6%.
COc1ccc2c(c1)N(C)C(=O)CC(c1ccccc1)=N2 was read as HPGD block -5%.
`CCN(CC)c1ccc(/C=N/NC(=O)Cc2cccs2)cc1` gave HPGD block inconclusive.
CC(NC(=O)C1CCN(S(=O)(=O)N2CCCCCC2)CC1)c1ccccc1 (stereo not drawn) was read as HPGD block -6%.
Screening Nc1nc(SCc2nc3scc(-c4cccs4)c3c(=O)[nH]2)n[nH]1 returned HPGD block -18%.
N#Cc1cncc(-c2ccc3c(c2)OCCOCCOCCOCCOCCO3)n1 was read as HPGD block -8%.

4 structures from above, arranged by length of the SMILES, descending.
Screening COc1cccc(C2(c3cccc(OC)c3)CC2C(=O)Nc2cccc3ccccc23)c1 (stereo not drawn) returned HPGD block -16%.
N#Cc1cncc(-c2ccc3c(c2)OCCOCCOCCOCCOCCO3)n1 was read as HPGD block -8%.
COc1ccc2c(c1)N(C)C(=O)CC(c1ccccc1)=N2 was read as HPGD block -5%.
Screening Cn1ncc(Cl)c1C(=O)N/N=C/c1ccccn1 returned HPGD block -11%.
